Source: PubChem
PABP polyA inh = blocks human PABP binding to poly(A) RNA; 290,000 compounds, 1% hits; inhibition, % at 35 µM; fluorescence polarization; P11940;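 active = 50% or more with normal probe brightness, or confirmed in later tests; inconclusive = above 50% with abnormal brightness, or retests that disagree; inactive = below 50% or failed in later tests; about a fifth of its hits are not listed in these tables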;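 also: calls also rest on retests at 20 µM and on dose response follow-up; controls were probe without protein and protein plus probe with vehicle; some compounds called inactive have numbers as strong as hits; many hits fall short of the cut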
Yeast UUG start = alters start codon recognition fidelity in yeast; S. cerevisiae UUG-firefly luciferase reporter, luminescence/redox ratio; 350,000 compounds, 0.13% hits; activity score, % at 18.7 µM;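 active = replicate mean at a twofold rise or more, about +100% in these data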;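 also: firefly luciferase made from a UUG start codon reports start codon fidelity; reporter light over untreated wells divided by growth signal over untreated wells; some hits fall short of that in this replicate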
HIV Env fusion = HIV envelope-mediated fusion inhibition; HeLa-JRFL Env/CEM21 cell fusion, luciferase; inhibition, % at 12.3 µM; 360,000 compounds, 1.1% hits; AID 651610;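 active = mean replicate inhibition score of at least 50 and every replicate individually at or above 50; inconclusive = only one of the two criteria met; inactive = mean below 50 and not all replicates reaching 50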;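 also: 0% = plate neutral controls and 100% = maraviroc near 300 nM; one replicate is shown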
eIF4H FP inh = inhibitors of RNA binding by human eIF4H; Q15056; eIF4H fluorescence polarization binding assay; inhibition, % at 35 µM; 290,000 compounds, 0.94% hits; AID 2012;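 active = 50% or more with normal probe brightness, or confirmed in later tests; inconclusive = above 50% with abnormal brightness, or retests that disagree; inactive = below 50% or failed in later tests; about a fifth of its hits are not listed in these tables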;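 also: calls also rest on retests at 20 µM and on dose response follow-up; 0% = protein and probe with vehicle and 100% = probe without protein; strong numbers were not always called active; many hits fall short of the cut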
Rce1 inh = inhibitors of yeast Ras-converting enzyme; yeast membranes, quenched prenylated peptide cleavage fluorescence; calls only; 290,000 compounds, 0.27% hits;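 active = fall in fluorescence gain of 50% or more versus controls, with final raw signal at or below 3038400; inconclusive = same 50% fall but final raw signal above 3038400; inactive = fall in fluorescence gain under 50%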;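 also: plate controls were neutral control wells for no effect and wells lacking membranes for full effect; tested at 10 µM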
Target sequence (Q03530 whole entry, looked up): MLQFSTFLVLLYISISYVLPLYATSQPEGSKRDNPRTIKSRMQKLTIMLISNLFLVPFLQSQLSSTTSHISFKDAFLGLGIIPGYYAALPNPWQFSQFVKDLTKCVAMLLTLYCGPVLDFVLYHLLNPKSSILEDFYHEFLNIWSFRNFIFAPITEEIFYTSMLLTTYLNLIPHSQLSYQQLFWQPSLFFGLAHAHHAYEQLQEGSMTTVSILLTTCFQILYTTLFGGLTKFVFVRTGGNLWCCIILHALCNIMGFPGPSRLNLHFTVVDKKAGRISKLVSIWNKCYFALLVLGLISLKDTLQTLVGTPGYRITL
CSC inhib = cancer stem cell inhibition; AID 2717; 300,000 compounds, 1.1% hits; cancer stem cell-like cells viability, luminescence; inhibition, % at 7.5 µM;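 active = mean at 75% or more and at least half the replicates too; inconclusive = mean and replicates disagree; tested in HMLE shEcad cells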;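 also: 0% = median of negative and 100% = median of positive control wells; the first replicate is given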
MT1-MMP act inh = MT1-MMP (human) activation inhibition. P50281. 360,000 compounds, 0.061% hits. GFP/RFP ratio change, % at 20 µM. HT1080 RFP-PRO-GFP cells, GFP/RFP ratio fluorescence, overnight; percent of plate control window, DMSO zero;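 active = GFP/RFP ratio change of at least 30% with cell ATP level not reduced by more than half and red fluorescence within 50% of control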; also: strong numbers were not always called active
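Test system: HT1080 cells expressing an RFP-PRO-GFP fluorescent reporter construct / Compound dosing: single-point 20 µM compound, 1% DMSO / Schedule: cells overnight before dosing, compound overnight, 37 °C, 5% CO2 / Evaluation: GFP/RFP fluorescence ratio / Control set: DMSO and RFP-L50D-GFP cell wells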
eIF4H FP inh retest = further read-out of eIF4H FP inh, marked with its call; inhibition, %; compound at 20 µM; confirmation average;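 mean of two retest wells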
PABP polyA inh retest = also measured in PABP polyA inh; calls as there; inhibition, %; compound at 20 µM; confirmation repeats;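 mean of two retest wells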
MT1-MMP act inh RFP = also measured in MT1-MMP act inh; calls as there; RFP signal change, %; measured here: RFP expression control read;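 0 = vehicle wells; hits needed this value within 50% of zero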
Numbers without * were called inactive. Only part of the results is shown. The share of hits here may be higher or lower than overall.

Screening Cc1c(C(=O)O)cccc1-c1ccc(/C=N/Nc2ccc(Br)cc2)o1 returned PABP polyA inh -7, Yeast UUG start -18, eIF4H FP inh 66, Rce1 inh inactive, CSC inhib 45, MT1-MMP act inh 2, eIF4H FP inh retest -1, PABP polyA inh retest 0 and MT1-MMP act inh RFP 1.
Cn1c(SCc2nc3ccccc3[nH]2)nnc1-c1cccs1 was read as PABP polyA inh -5, Yeast UUG start -23, eIF4H FP inh 2, Rce1 inh inactive, CSC inhib 8, MT1-MMP act inh -1 and MT1-MMP act inh RFP -1.
COc1ccc(CNC(=O)C2COc3ccccc3O2)c(OC)c1 (configuration not stated) was read as PABP polyA inh -3, Yeast UUG start 7, eIF4H FP inh 8, Rce1 inh inactive, CSC inhib -12, MT1-MMP act inh 9 and MT1-MMP act inh RFP 3.
For O=C(O)c1ccc(/C=N/NC(=O)c2cc3c(ccc4ccccc43)o2)cc1 the results were PABP polyA inh 22, Yeast UUG start -10, HIV Env fusion 2, eIF4H FP inh 51, Rce1 inh inactive, CSC inhib -9, MT1-MMP act inh 1, eIF4H FP inh retest 0, PABP polyA inh retest 3 and MT1-MMP act inh RFP 1.
CCC1Oc2ccccc2N(CC(=O)NC2CC2)C1=O (configuration not stated) was read as PABP polyA inh 9, Yeast UUG start -18, HIV Env fusion -8, eIF4H FP inh -4, Rce1 inh inactive, CSC inhib -6, MT1-MMP act inh 3 and MT1-MMP act inh RFP 4.
`CCOC(=O)C1=CCN(S(=O)(=O)c2ccccc2Cl)C1c1ccc(Cl)c(Cl)c1` (configuration not stated) gave Yeast UUG start -18, HIV Env fusion 28, MT1-MMP act inh -1 and MT1-MMP act inh RFP -2.
Screening CCCCn1c(N)c(N(CCOC)C(=O)c2ccc(Cl)c(S(=O)(=O)N3CCCCC3)c2)c(=O)[nH]c1=O returned Yeast UUG start 16, HIV Env fusion 13, Rce1 inh inactive, CSC inhib -6, MT1-MMP act inh 0 and MT1-MMP act inh RFP 1.
Screening Cc1c(Cl)cnc(NC(=O)COC(=O)Cc2coc3ccc4ccccc4c23)c1Cl returned PABP polyA inh 6, Yeast UUG start -8, HIV Env fusion -7, eIF4H FP inh 8, Rce1 inh inactive, CSC inhib -8, MT1-MMP act inh 2 and MT1-MMP act inh RFP 4.
`CCCN1C(=O)/C(=C/c2c(N3CCNC(=O)C3CC(=O)OCC)nc3c(C)cccn3c2=O)SC1=S` (configuration not stated) gave PABP polyA inh inconclusive, Yeast UUG start 1, eIF4H FP inh inconclusive, Rce1 inh inactive, CSC inhib 50, MT1-MMP act inh -28 and MT1-MMP act inh RFP 56.
For Cc1ccccc1OCC(=O)N1CCN(C(=O)COc2ccccc2C)CC1 the results were PABP polyA inh -9, Yeast UUG start -4, HIV Env fusion 4, eIF4H FP inh -1, Rce1 inh inactive, MT1-MMP act inh 1 and MT1-MMP act inh RFP 4.
`O=C(CSc1ccc(-c2nc3ccccc3[nH]2)cn1)Nc1ccc(S(=O)(=O)NC2CC2)cc1` gave PABP polyA inh -4, Yeast UUG start -12, HIV Env fusion 8, eIF4H FP inh -5, Rce1 inh inactive, CSC inhib -6, MT1-MMP act inh 10 and MT1-MMP act inh RFP 4.
Screening O=C(Cn1cnc([N+](=O)[O-])c1)NCCc1ccccc1 returned PABP polyA inh -13, Yeast UUG start -8, HIV Env fusion -1, eIF4H FP inh -10, CSC inhib -10, MT1-MMP act inh 7 and MT1-MMP act inh RFP 9.
Screening CCOc1ccc(NC(=O)CCS(=O)(=O)c2ccc3c(c2)CCCN3C(C)=O)cc1 returned PABP polyA inh -2, Yeast UUG start -19, HIV Env fusion -17, eIF4H FP inh 2, Rce1 inh inactive, CSC inhib -10, MT1-MMP act inh -16 and MT1-MMP act inh RFP -4.
`CC(C)OC(=O)/C(C#N)=C/c1ccc(-c2ccc(SC(F)F)cc2)o1` gave PABP polyA inh 0, HIV Env fusion 13, eIF4H FP inh 1, Rce1 inh inactive, CSC inhib 18, MT1-MMP act inh -7 and MT1-MMP act inh RFP -10.
CCC(C)NC(=O)C(NS(=O)(=O)c1cccc2nsnc12)c1ccccc1 (configuration not stated) was read as PABP polyA inh 2, Yeast UUG start -6, HIV Env fusion 0, eIF4H FP inh -3, Rce1 inh inactive, CSC inhib 7, MT1-MMP act inh 3 and MT1-MMP act inh RFP -2.
For Brc1c(CSc2nncn2-c2ccccc2)nc2sccn12 the results were PABP polyA inh -2, Yeast UUG start -18, HIV Env fusion -4, eIF4H FP inh 16, Rce1 inh inactive, CSC inhib -5, MT1-MMP act inh 1 and MT1-MMP act inh RFP -1.
CCCC(=O)Nc1ccc(C(=O)NNC(=S)NC(=O)c2cccs2)cc1 was read as PABP polyA inh 5, Yeast UUG start -26, HIV Env fusion -6, eIF4H FP inh 15, Rce1 inh inactive, CSC inhib 20, MT1-MMP act inh 4 and MT1-MMP act inh RFP -1.
Screening CN(CC(=O)Nc1ccccc1C(F)(F)F)C(=O)c1cc([N+](=O)[O-])ccc1N1CCOCC1 returned PABP polyA inh 36, Yeast UUG start -8, HIV Env fusion -23, eIF4H FP inh -11, Rce1 inh inactive, CSC inhib -16, MT1-MMP act inh -1 and MT1-MMP act inh RFP 2.
`Cc1c(C(=O)Nc2ccncc2)oc2ccccc12` gave PABP polyA inh 0, Yeast UUG start -14, HIV Env fusion -297, eIF4H FP inh 0, CSC inhib 13, MT1-MMP act inh -5 and MT1-MMP act inh RFP -10.
Screening CCN(CC(=O)Nc1ccccc1OC)C(=O)c1ccccc1Sc1ccccc1C#N returned Yeast UUG start -1, HIV Env fusion 5, CSC inhib -10, MT1-MMP act inh -4 and MT1-MMP act inh RFP 1.
`CCn1nc(C)c(NC(=O)/C=C/c2ccc(OC)c(COc3ccc(Br)cc3)c2)c1C` gave PABP polyA inh -2, Yeast UUG start -2, HIV Env fusion 2, eIF4H FP inh 3, Rce1 inh inactive, CSC inhib 74, MT1-MMP act inh 1 and MT1-MMP act inh RFP -6.
Screening CCOc1ccccc1C1NC(=O)NC(C)=C1C(=O)OCc1ccco1 (configuration not stated) returned PABP polyA inh 7, Yeast UUG start -7, eIF4H FP inh 11, CSC inhib -6, MT1-MMP act inh -4 and MT1-MMP act inh RFP -5.
For CC1(C)CC(NC(=O)C2CCC(=O)N(Cc3ccccc3F)C2)CC(C)(C)C1 (configuration not stated) the results were PABP polyA inh -4, Yeast UUG start 19, eIF4H FP inh 4, Rce1 inh inactive, MT1-MMP act inh -1 and MT1-MMP act inh RFP 0.
C#CCOC(=O)c1cc(Cl)c(=O)n(Cc2ccc(Cl)cc2Cl)c1 was read as PABP polyA inh -2, Yeast UUG start -9, HIV Env fusion 6, eIF4H FP inh -9, Rce1 inh inactive, CSC inhib 0, MT1-MMP act inh 1 and MT1-MMP act inh RFP -2.
CCOC(=O)c1nnn(CC(=O)NC(=O)Nc2cccc(CC)c2)c1C(=O)OCC was read as PABP polyA inh 2, HIV Env fusion -18, eIF4H FP inh -10, Rce1 inh inactive, CSC inhib -20, MT1-MMP act inh -1 and MT1-MMP act inh RFP -1.
For CN1C(=O)N(C)C(NC(=O)Nc2ccccc2)C1NC(=O)Nc1ccccc1 (configuration not stated) the results were PABP polyA inh -11, Yeast UUG start -5, eIF4H FP inh -5, Rce1 inh inactive, CSC inhib 16, MT1-MMP act inh 5 and MT1-MMP act inh RFP 0.
Screening CCc1ccc(N2CC(C(=O)Nc3ccc(S(=O)(=O)N4CCOCC4)cc3)CC2=O)cc1 (configuration not stated) returned HIV Env fusion 6, Rce1 inh inactive, CSC inhib -8, MT1-MMP act inh 3 and MT1-MMP act inh RFP -2.
Screening Cc1ccc(S(=O)(=O)CCC(=O)Nc2nc(-c3cccnc3)cs2)cc1 returned PABP polyA inh -3, HIV Env fusion -11, eIF4H FP inh 15, Rce1 inh inactive, CSC inhib -5, MT1-MMP act inh 0 and MT1-MMP act inh RFP 0.
O=C1C(=C2CCc3ccccc32)Cc2ccccc21 was read as Yeast UUG start -14, HIV Env fusion -64, MT1-MMP act inh -6 and MT1-MMP act inh RFP 2.
O=C(OCc1ccccc1F)c1cc([N+](=O)[O-])ccc1N1CCOCC1 was read as Yeast UUG start -8, HIV Env fusion -1, Rce1 inh inactive, CSC inhib -1, MT1-MMP act inh 2 and MT1-MMP act inh RFP -5.
`Cc1ccc(CNc2cnccn2)s1` gave PABP polyA inh 5, Yeast UUG start -9, HIV Env fusion 0, eIF4H FP inh 3, Rce1 inh inactive, CSC inhib -3, MT1-MMP act inh -3 and MT1-MMP act inh RFP 2.
`COc1ccc(-c2[nH]ncc2/C=C(\C#N)C(=O)NC2CC2)cc1` gave PABP polyA inh -9, Yeast UUG start -11, HIV Env fusion -19, eIF4H FP inh -6, CSC inhib 1, MT1-MMP act inh 6 and MT1-MMP act inh RFP -8.
For COc1ccc(Cn2nnnc2C(c2cccs2)N2CCSCC2)cc1 (configuration not stated) the results were PABP polyA inh -2, Yeast UUG start -9, eIF4H FP inh -2, MT1-MMP act inh 3 and MT1-MMP act inh RFP -4.
`Cc1ccc(C2CC2/C(=N/O)c2ccc(F)cc2)cc1` (configuration not stated) gave PABP polyA inh 1, Yeast UUG start -19, HIV Env fusion -1, eIF4H FP inh -9, Rce1 inh inactive, CSC inhib 25, MT1-MMP act inh 6 and MT1-MMP act inh RFP 0.
Screening C=CCn1c(=S)[nH]c2scc(-c3ccco3)c2c1=O returned PABP polyA inh 69*, HIV Env fusion 2, eIF4H FP inh 94*, CSC inhib 5, MT1-MMP act inh -9 and MT1-MMP act inh RFP 8.
CSC1=N/C(=C\c2cccnc2)C(=O)N1c1ccccc1 was read as PABP polyA inh 1, eIF4H FP inh -8, Rce1 inh inactive, MT1-MMP act inh -1 and MT1-MMP act inh RFP 1.
For COCCCn1c(=O)c2sccc2n2c(CCCC(=O)NCC3CCCO3)nnc12 (configuration not stated) the results were PABP polyA inh -4, Yeast UUG start -12, HIV Env fusion -6, eIF4H FP inh -9, Rce1 inh inactive, CSC inhib -10, MT1-MMP act inh 3 and MT1-MMP act inh RFP 4.
CCOC(=O)c1[nH]c(C)c(/C=N/O)c1C was read as PABP polyA inh 2, Yeast UUG start -23, eIF4H FP inh 8, Rce1 inh inactive, CSC inhib -2, MT1-MMP act inh -2 and MT1-MMP act inh RFP -4.
`Cc1ccccc1C1c2[nH]c3ccccc3c2C[C@H]2C(=O)N(C3CC3)CC(=O)N12` (some centres not stated) gave PABP polyA inh -4, Yeast UUG start -22, HIV Env fusion 13, eIF4H FP inh -1, Rce1 inh inactive, CSC inhib 0, MT1-MMP act inh -8 and MT1-MMP act inh RFP -5.
Screening COc1ccc(CN2CCN(C(=O)CC(C)C)CC2)c2ccccc12 returned PABP polyA inh 4, Yeast UUG start -3, eIF4H FP inh -1, Rce1 inh inactive, CSC inhib -11, MT1-MMP act inh -3 and MT1-MMP act inh RFP -4.
`CC(NC(=O)OCc1ccccc1)C(=O)OCN1C(=O)c2ccccc2C1=O` (configuration not stated) gave PABP polyA inh -1, Yeast UUG start -3, eIF4H FP inh 2, Rce1 inh inactive, CSC inhib -5, MT1-MMP act inh 3 and MT1-MMP act inh RFP 8.
